# Source: PubChem BioAssay
# TRPML1 agonist: agonists of human TRPML1 channel. AID 624414. 410,000 tested, 0.12% active. TRPML1-expressing cells, Ca2+ dye fluorescence, FDSS; host cell line not named in the record; reference of the full effect not given here. Q9GZU1. activation, % (no concentration beside the values); in the data active = activation above about 50%; inconclusive = about 30% to 50%; inactive = below about 30%; also: 0% is about no effect; the text of the record puts the active cut at 80%
#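 Agonist activity was taken from a 110 s kinetic Ca2+ dye read on the FDSS after pinning compounds onto TRPML1-DL cells. The cells were seeded at 1,500/well with Tet inducer, incubated about 16 h, then dye-loaded at room temperature.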
# TRPV1 PAM: human TRPV1 potentiation. potentiation, % at 8.33 µM. TRPV1-expressing cells, Fluo-8 calcium influx, capsaicin EC20 potentiation; host cell line not named in the record; control for the full effect not named in the record. AID 540277. Q8NER1. 320,000 tested, 0.02% active; active means potentiation above 80%; inconclusive means 30% to 80%; inactive means below 30%; also: 0% is about no effect
# Target sequence (Q8NER1 whole entry, looked up): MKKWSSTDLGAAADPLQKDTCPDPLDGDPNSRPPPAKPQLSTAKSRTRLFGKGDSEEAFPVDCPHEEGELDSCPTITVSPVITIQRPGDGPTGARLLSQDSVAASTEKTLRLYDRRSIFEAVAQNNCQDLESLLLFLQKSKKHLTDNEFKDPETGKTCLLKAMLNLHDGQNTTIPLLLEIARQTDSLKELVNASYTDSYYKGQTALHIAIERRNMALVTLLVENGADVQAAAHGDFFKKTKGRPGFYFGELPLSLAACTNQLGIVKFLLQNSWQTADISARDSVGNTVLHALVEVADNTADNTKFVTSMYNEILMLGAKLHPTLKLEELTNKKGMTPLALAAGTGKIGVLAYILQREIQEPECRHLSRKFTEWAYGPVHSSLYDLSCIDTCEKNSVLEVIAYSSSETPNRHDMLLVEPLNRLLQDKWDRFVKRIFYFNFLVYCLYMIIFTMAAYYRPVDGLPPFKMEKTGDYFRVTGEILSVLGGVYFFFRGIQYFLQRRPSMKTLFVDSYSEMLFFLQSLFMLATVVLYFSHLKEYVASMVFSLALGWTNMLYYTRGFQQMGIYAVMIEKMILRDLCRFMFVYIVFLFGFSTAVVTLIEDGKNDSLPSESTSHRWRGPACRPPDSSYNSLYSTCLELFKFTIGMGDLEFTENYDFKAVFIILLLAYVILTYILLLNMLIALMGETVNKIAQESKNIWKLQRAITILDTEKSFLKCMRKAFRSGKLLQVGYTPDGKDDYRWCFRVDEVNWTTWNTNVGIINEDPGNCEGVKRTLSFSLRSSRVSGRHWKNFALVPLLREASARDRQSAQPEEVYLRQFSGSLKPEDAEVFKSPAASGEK
#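 Cells expressing TRPV1 were dye-loaded with Fluo-8 and read kinetically: 10 s baseline, 3 min after compound (agonist portion), then 2 min after EC20 capsaicin (allosteric enhancer portion). Calcium-bound dye fluorescence at 480/520 nm.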
# D2 PAM: potentiates the human D2 dopamine receptor allosterically. 360,000 tested, 0.23% active. P14416. DiscoveRx D2 beta-arrestin cells, luminescence, 90 min; 100% = 57 uM dopamine signal. potentiation, % (test concentration not listed); active = potentiation of 50% or more; inconclusive = 30% to 50%; inactive = 30% or less;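 also: compound concentration not given in the record; tested on top of an EC20 dose of dopamine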
#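 PathHunter beta-arrestin assay in DiscoveRx D2 cells. Compounds were added with an EC20 of dopamine (50 nM final) for 90 min at 37 deg C. Luminescence was read 1 h after detection reagent, with 57 uM dopamine as the EC100 control.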
# TRPML1 inh: human mucolipin-1 channel inhibition; activity change, negative = inhibition, % (no concentration beside the values); AID 624415; Q9GZU1; TRPML1-inducible cells, Ca2+ dye fluorescence, FDSS; hits give low values; inhibition of EC80 agonist-evoked calcium signal; 390,000 tested, 0.02% active; in the data active means activity change below about -50%; inconclusive means about -30% to -50%; inactive means above about -30%;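 also: stimulus is agonist 54-4 at its EC80 concentration; % is scaled to controls: 0 for no effect and ±100 for the full control effect; compound concentration not given in the record; the text of the record puts the active cut at -80%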
#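 TRPML1-DL cells, Tet-induced overnight (~16 h, 37 °C) at 1,500 cells/well, were loaded with Ca8 no-wash dye plus quencher for 45-90 min at room temperature. Compounds were pinned during FDSS kinetic reading; agonist 54-4 at EC80 (4 uM final) then added.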
# Six1-Eya2 inh: Six1/Eya2 interaction inhibition; 360,000 tested, 0.56% active; AlphaScreen GST-Six1/His-Eya2 binding, biochemical; hits give low values; control for the full effect not named in the record; activity change, % (concentration not given with the values); Q15475+O00167; AID 651725; in the data active = activity change below about -65%; inconclusive = about -30% to -65%; inactive = above about -30%; also: % is scaled to controls: 0 for no effect and ±100 for the full control effect
#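 AlphaScreen luminescence read after one hour at 37 °C in darkness. Pin-transferred compounds met GST-Six1 and His-Eya2 protein (5X stock 250 nM/500 nM) plus glutathione donor and Ni-chelate acceptor beads (5X, 50 ug/mL).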
# CtBP-E1A blk: inhibitors of CtBP/E1A interaction. AID 651724. AlphaScreen GST-E1A/His-CtBP binding, 1536-well; hits give low values; control for the full effect not named in the record. activity change, % (no concentration beside the values). 340,000 tested, 0.49% active; in the data active means activity change below about -65%; inconclusive means about -30% to -65%; inactive means above about -30%; also: % is scaled to controls: 0 for no effect and ±100 for the full control effect; compound concentration not given in the record
#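 Protein mix (5X: 125 nM each GST-E1A, His-CtBP) was incubated with pinned compound 2 h at 37 deg C in dark, in 50 mM Tris pH 8.0 buffer with 300 mM NaCl. Glutathione donor and nickel acceptor beads followed; AlphaScreen signal read after 1 h.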
# Active calls of the source: *; ? = inconclusive; / = not tested or not shown; & = joins results of further samples.
entry	smiles	TRPML1 agonist	TRPV1 PAM	CtBP-E1A blk	Six1-Eya2 inh	TRPML1 inh	D2 PAM
1	CC(=O)N1CCN(S(=O)(=O)c2cccc(C(=O)OCC(=O)N3CC(=O)Nc4ccccc43)c2)CC1	0.6	6.4	2.3	1.6	24.7	7.0
2	O=C1NN(c2ccccc2)C(=O)C2C1C1C=CC2C12CC2 (centres undefined)	-0.4	0.6	22.3	12.8	0.5	-8.4
3	O=C(c1ncc[nH]1)c1ccccc1Cl	0.8	-5.9	0.4	-4.7	-2.7	-5.6
4	CCN(CC)CCN(C(=O)c1cc2ccccc2cc1OC)c1nc2ccc(F)cc2s1	-0.4	-3.7	?	-28.5	-27.3	-34.9
5	O=C(NCC1CCCO1)C1CCN(C2CCN(Cc3ccco3)CC2)CC1 (centres undefined)	0.4	-3.1	-2.1	-11.7	-13.6	-8.0
6	CC(=O)c1c(N2CCOCC2)nc2ccc(Cl)cc2c1-c1ccccc1	1.9	-7.9	-0.1	-9.5	-14.1	-7.9
7	CCCCn1c(SCC(=O)N2CCOCC2)nnc1-c1ccoc1C	-0.2	-5.9	3.7	2.0	-7.4	5.2
8	Cc1cc(C)n(Cc2ccc(C(=O)NN)o2)n1	1.0	-11.1	/	1.8	-27.8	5.1
9	COc1ccc2oc(C(=O)OCC(=O)N(C)Cc3ccccc3)c(C)c2c1	2.0	7.1	-9.4	-0.9	0.6	-2.7
10	Cc1ccc(C(=O)NCCCNCCCN(C)C)cn1	-0.5	-3.3	0.3	-1.8	-6.9	-8.4
11	CN1c2cccc3cccc(c23)N(C)C1c1cccs1	4.3	-22.8	-8.3	-15.6	-5.5	21.5
12	Cc1ccc(C(=O)N/N=C2\CC3CC=CC23)c(C)c1 (centres undefined)	0.7	6.1	/	8.7	-9.1	-10.6
13	COc1ccc(C2=NS(=O)(=O)N(C)C(C(=O)Nc3cc(C)ccc3O)=C2)cc1OC	1.5&0.7	23.3	0.0	-21.5	8.9&3.5	9.2
14	COc1cccc(Oc2cnc(N)nc2-c2ccc(OC)cc2O)c1	1.9	-3.3	-9.5	-20.4	12.9	-1.7
15	CCNc1cccc2c1C(=O)N(C)C2=O	13.9	0.9	9.5	13.0	6.3	0.7
16	CCCCNc1ccc2c(c1)C1CC2CCN1C(=O)OCc1ccccc1 (centres undefined)	2.1	/	?	-22.9	-1.1	-8.1
17	Cc1cccc(NC(=S)N2CCC(c3nc4ccccc4s3)CC2)c1	1.0	-6.1	-15.7	-10.5	0.0	2.1
18	Cc1ccc(C(=O)NCC(=O)N2CCN(c3ncccn3)CC2)s1	-0.8	3.7	3.4	-1.3	0.0	13.6
19	Cc1[nH]c(=O)[nH]c(=O)c1CSCC(=O)OCC(=O)Nc1ccccn1	-0.9	13.5	8.1	-17.3	8.5	5.0
20	O=C(NCc1ccccn1)Nc1ccccc1	-0.3	-27.3	-3.6	3.1	0.5	2.5
21	CC(C)(C)c1csc(NC(=O)c2cccs2)n1	-0.4	-15.4	2.2	-2.5	1.0	-12.5
22	Cc1ccc(C)c(NC(=O)c2ccccc2NC(=O)C2CCCO2)c1 (centres undefined)	0.4	-12.3	/	3.7	16.0	-6.3
23	Cc1ccc(C)n1-c1ccc(C(=O)NCc2ccncc2)cc1	0.2	0.1	/	-22.6	-6.0	-11.3
24	COc1c(C)cc(C(O)c2ncc(-c3ccc4ccccc4c3)[nH]2)cc1C (centres undefined)	-0.6	/	-18.5	-17.7	/	-4.0
25	CCOC(=O)c1c(C=O)c2sc(C)cc2n1C	2.6	2.9	0.5	11.1	6.0	-5.6
26	C=C(C)CNC(=S)N/N=C(\C)c1ccc(OC)cc1	-0.1	3.4	-28.4	-9.8	-5.6	-10.4
27	O=C(COC(=O)c1ccc(Cl)s1)c1ccc[nH]1	-0.3	9.2	-1.0	0.1	17.3	-2.4
28	CCOc1ccccc1CN1CCNC(=O)C1CC(=O)N(C)CCc1cnn(C)c1 (centres undefined)	-2.0	3.6	-0.1	-2.1	-4.9	-8.3
29	CN(Cc1cccc(F)c1)C(=O)c1cc(=O)[nH]c2ccccc12	0.4	5.1	11.9	9.0	-12.8	-7.8
30	Nc1ccn([C@@H]2O[C@H](C(=O)NCCc3ccc(F)cc3)[C@@H](O)[C@H]2O)c(=O)n1	0.2	/	9.2	0.0	/	-2.3
31	COc1ccccc1OCCNC(=O)C1CCCCC1	-0.2	-10.1	-24.2	2.0	5.3	-3.9
32	CC1(C(=O)N2CCN(c3ccccc3)CC2)CC1(Cl)Cl (centres undefined)	-0.2	4.7	-1.9	-2.0	6.9	-2.3
33	COc1ccc2nc(SCC(=O)NCc3ccc(F)cc3)[nH]c2c1	-1.0	-15.1	-0.7	-2.0	-1.4	-0.8
34	Nc1ccc(-c2cn3cccnc3n2)cc1	-0.3	0.7	-5.0	9.5	-21.1	-9.6
35	CSc1nc(N)nc(N(C)C)n1	-0.5	-1.4	/	-0.3	29.2	-21.6
36	O=C(CSc1nnc2ccc(-c3ccccn3)nn12)Nc1ccccc1	0.6	-29.5	-1.0	3.6	8.2	-31.6
37	O=c1cc(NC2CCCCCC2)[nH]c(=O)[nH]1	0.8	-7.2	4.2	-1.4	-2.9	4.3
38	Cc1ccc(C)c(OCCCN2CCCC2)c1	0.1	6.3	0.7	-1.0	-8.7	-19.0
39	COC(=O)c1cn(-c2ccc(Cl)cc2)c(=O)c2ccccc12	-0.6	-9.5	-0.1	-0.6	-4.9	-9.3
40	O=S(=O)(Nc1ccc2c(c1)nc1n2CCN(Cc2ccccc2)C1)c1ccccc1	0.3	29.6	-14.7	-11.1	-2.3	-2.3
41	CN(CC(=O)NCc1ccc2c(c1)OCO2)S(=O)(=O)c1ccc(F)cc1	-0.1	1.1	4.2	4.0	-7.5	3.0
42	Cc1cc(/C=N/NC(=O)C(=O)N2CCCC2)c(C)n1-c1cccc(Br)c1	0.3	1.5	-12.6	-21.3	-2.4	-10.3
43	Cc1ccc(CCCOC(=O)C[N+]2(C)CCCCC2)cc1	-0.3	26.2	10.9	-13.2	23.4	-7.3
44	CCOC(=O)C[C@H]1c2ccc(C(F)(F)F)cc2S(=O)(=O)N1C(C)C	0.2&-0.7	/	16.5	0.6	-28.1	-9.7
45	CC(=O)N1c2ccc(S(=O)(=O)NCC3CCC(C(=O)Nc4cccc(C)n4)CC3)cc2CC1C (centres undefined)	-1.4	-9.6	-7.0	-1.8	-7.5	6.5
46	CCCNC(=S)N1CCN(C)CC1	-0.4	1.2	1.9	5.1	15.3	6.8
47	O=C(Nc1cccc(-c2nc3cccnc3s2)c1)c1ccc(Cl)nc1	-0.9	15.8	2.9	7.8	-10.6	11.6
48	Cc1ccc(C(=O)n2cnnc2N)cc1C	-0.3	5.0	8.5	-0.7	17.7	-9.6
49	O=S(=O)(NCc1ccco1)c1cnc(Cl)c(Cl)c1	/	-3.6	-2.7	1.0	/	-5.7
50	CCc1cc2c(=O)nc3n(c2s1)Cc1ccccc1/C3=C(/O)c1cccc([N+](=O)[O-])c1	-0.3	-10.6	-0.5	-5.7	7.4	-15.8
51	Cc1ccc(S(=O)(=O)Nc2c(C)nn(C)c2C)cc1C	-0.3	-9.7	5.4	4.6	-2.3	19.3
52	N#CC(CO)(Cc1ccc(OC(F)F)cc1)c1nc2ccccc2[nH]1 (centres undefined)	1.3	-17.6	9.4	0.5	6.0	7.5
53	CCN(CC)CCNC(=O)C12CC3CC(CC(C3)C1)C2	4.7	?	0.5	15.1	14.1	-9.7
54	COc1ccc(C)cc1NC(=O)NC1CCCCCCC1	1.8	-9.3	0.7	0.0	-5.6	-31.7
55	Cc1ccccc1NC(=O)NNC(=O)COc1ccc2ccccc2c1	0.5	3.1	2.1	-1.7	4.1	-7.3
56	CCOCCCNC(=O)C1CCC(CNS(=O)(=O)c2ccc(F)cc2)CC1 (centres undefined)	-0.7	4.6	4.3	3.3	-6.4	3.6

# Three compounds from above, showing only TRPML1 inh and TRPML1 agonist:
no.	SMILES	TRPML1 inh	TRPML1 agonist
50	CCc1cc2c(=O)nc3n(c2s1)Cc1ccccc1/C3=C(/O)c1cccc([N+](=O)[O-])c1	7.4	-0.3
51	Cc1ccc(S(=O)(=O)Nc2c(C)nn(C)c2C)cc1C	-2.3	-0.3
52	N#CC(CO)(Cc1ccc(OC(F)F)cc1)c1nc2ccccc2[nH]1 (centres undefined)	6.0	1.3

# Later entries:
entry	smiles	TRPML1 agonist	TRPV1 PAM	CtBP-E1A blk	Six1-Eya2 inh	TRPML1 inh	D2 PAM
57	C[C@@H](C(=O)Nc1nccs1)N1C(=O)C2CC=CCC2C1=O (some centres undefined)	1.4	/	5.9	5.1	-1.4	-4.2
58	CNC(=O)C(=O)NCCN1CCN(C(=O)c2ccc([N+](=O)[O-])cc2)CC1	-0.2	2.1	7.0	-4.1	-2.4	-1.6
59	Nc1nc(SCC(=O)Nc2cc(Cl)ccc2Cl)n[nH]1	0.6	/	-5.1	5.2	-2.6	1.7
60	CN(CC(=O)Nc1ccccc1Cl)C(=O)COC(=O)CCN1C(=O)C2CC=CCC2C1=O (centres undefined)	-0.6	2.7	6.4	-2.9	12.9	12.5
61	COC(=O)[C@]12CCCCC=C1N(CCC1=CCCCC1)C(=O)[C@H](CC(=O)NCc1cccc(C(F)(F)F)c1)C2	1.2	/	-16.0	-3.9	/	/
62	CCCC1=C(C(=O)OCC)C(c2ccco2)C(C#N)=C(N)O1 (centres undefined)	2.4	-9.1	-5.1	4.5	10.5	0.0
63	O=C(NC1CC1)c1cc(-c2ccco2)nc2ccccc12	-0.5	1.0	-2.3	?	5.3	-1.0
64	CCCCn1c(-c2csc(CC)c2)n[nH]c1=S	3.2	7.1	0.3	1.7	12.0	-4.0
65	CCOc1ccc(S(=O)(=O)N2CCC(C(=O)Nc3cccc(NC(C)=O)c3)CC2)cc1	1.0	0.9	-19.0	-1.1	4.3	-0.5
66	CSc1ccc(CN(C)CC(=O)Nc2ccc(C)cc2Br)cc1	1.0	3.7	-2.7	4.7	78.4	-14.9
67	Cc1ccccc1NC(=O)c1c(C)[nH]c(=S)c(C#N)c1-c1ccc(Cl)cc1	1.2	15.8	5.6	-2.6	0.3	-12.1
68	COC(=O)[C@@]12CCCCN1[C@H](c1ccc(-c3ccc(F)cc3)cc1)[C@H]1C(=O)N(C)C(=O)[C@H]12	0.8	/	/	-8.3	45.9	-1.3
69	Cn1cnnc1SCC(=O)N/N=C/c1ccc(OCC(N)=O)cc1	0.4	-2.3	0.9	4.4	5.4	-3.3
70	Cc1cc(C)c(OCC(=O)Nc2nnc(-c3ccco3)o2)c(C)c1	0.9	?	0.4	16.8	0.2	-4.6
71	CN(C)S(=O)(=O)c1cc(NC(=O)C2=COCCO2)ccc1Cl	1.3	-12.6	-19.6	2.8	-11.0	-3.8
72	CCOCC(=O)Nc1cc(C(=O)OC)cc(C(=O)OC)c1	0.1	-1.5	/	6.0	15.9	-5.7
73	C=CCn1c(Oc2ccccc2)nc2c1c(=O)n(C)c(=O)n2C	1.3	8.6	7.2	-3.1	-8.5	2.5
